TRPML1 blocker = qHTS for Inhibitors of the Human Mucolipin Transient Receptor Potential 1 (TRPML1) | Mucolipin-1 (Homo sapiens), Q9GZU1 | TRPML1-inducible cells, Ca2+ dye fluorescence, FDSS; hits give low values; inhibition of EC80 agonist-evoked calcium signal | activity change, negative = inhibition, % (no concentration beside the values) | actives 0.02% (n = 390,000) | AID 624415, 2012; in the data active means activity change below about -50%; inconclusive means about -30% to -50%; inactive means above about -30%;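 also: stimulus is agonist 54-4 at its EC80 concentration; % is scaled to controls: 0 for no effect and ±100 for the full control effect; compound concentration not given in the record; the text of the record puts the active cut at -80%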
Target sequence (Q9GZU1 whole entry, looked up): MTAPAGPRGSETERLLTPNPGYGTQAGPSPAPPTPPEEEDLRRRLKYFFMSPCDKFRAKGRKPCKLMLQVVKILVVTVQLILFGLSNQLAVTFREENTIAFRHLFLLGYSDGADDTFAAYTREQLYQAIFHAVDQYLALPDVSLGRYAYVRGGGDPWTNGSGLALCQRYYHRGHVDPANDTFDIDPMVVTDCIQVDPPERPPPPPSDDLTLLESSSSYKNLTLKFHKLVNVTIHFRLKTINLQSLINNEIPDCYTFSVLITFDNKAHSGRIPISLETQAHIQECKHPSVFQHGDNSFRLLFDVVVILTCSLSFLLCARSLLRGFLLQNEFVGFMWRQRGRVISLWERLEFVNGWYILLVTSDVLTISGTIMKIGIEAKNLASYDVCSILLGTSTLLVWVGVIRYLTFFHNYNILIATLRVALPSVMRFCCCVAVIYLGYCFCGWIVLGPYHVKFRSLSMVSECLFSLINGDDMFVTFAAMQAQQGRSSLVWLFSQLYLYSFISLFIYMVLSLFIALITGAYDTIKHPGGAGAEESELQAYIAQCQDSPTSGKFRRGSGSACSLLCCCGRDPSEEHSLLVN
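Calcium fluorescence in TRPML1-DL cells induced overnight with Tet: a 110 s read after compound pin addition, then a 110 s antagonist read after challenge with 54-4 at 4 uM final (EC80).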
PINK1 expr mod = A Quantitative High throughput Screen to Identify Chemical Modulators of PINK1 Expression; PINK1 immunofluorescence, high-content cytometry, 24 h; Potency, µM (titrated, usually from 76.6 µM), for the others: at the top dose activation (PINK1 increase), usual class: activators; actives 0.2% (n = 410,000); AID 624263, 2012; active = well fitted activation curve with a large enough effect; inconclusive = small, poorly fitted or top-dose-only effect; inactive = flat fitted curve, though single readings scatter; cell line not stated here;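 also: potency is read from the fitted curve at half-maximal effect; % of control where 0% means no effect; nearly all actives have a fitted effect of over 65% in size; a mitochondrial uncoupler was the plate control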
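PINK1 protein level read as immunofluorescence by microplate cytometer in a fixed, stained stable cell line after 24 h exposure to five compound concentrations, with CCCP as control.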
TRPML1 ag = qHTS for Agonists of the Human Mucolipin Transient Receptor Potential 1 (TRPML1) | Mucolipin-1 (Homo sapiens), Q9GZU1 | TRPML1-expressing cells, Ca2+ dye fluorescence, FDSS; host cell line not named in the record; reference of the full effect not given here | activation, % (no concentration beside the values) | actives 0.12% (n = 410,000) | AID 624414, 2012; in the data active = activation above about 50%; inconclusive = about 30% to 50%; inactive = below about 30%; also: 0% is about no effect; the text of the record puts the active cut at 80%
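In this qHTS format, compounds were pin-transferred onto Ca8-dye-loaded TRPML1-DL cells induced with Tet overnight, and intracellular Ca2+ fluorescence was recorded kinetically for 110 s after a 10 s baseline. A subsequent 4uM final 54-4 (EC80) addition followed by a second 110 s read served as the antagonist phase.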
Six1-Eya2 inh = qHTS Assay for Inhibitors of the Six1/Eya2 Interaction | AlphaScreen GST-Six1/His-Eya2 binding, biochemical; hits give low values; control for the full effect not named in the record | Homeobox protein SIX1 (Homo sapiens) + Protein phosphatase EYA2 (Homo sapiens), … | actives 0.56% (n = 360,000) | activity change, % (no concentration beside the values) | AID 651725, 2012; in the data active = activity change below about -65%; inconclusive = about -30% to -65%; inactive = above about -30%; also: % is scaled to controls: 0 for no effect and ±100 for the full control effect; compound concentration not given in the record
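AlphaScreen luminescence read after one hour at 37 °C in darkness. Pin-transferred compounds met GST-Six1 and His-Eya2 protein (5X stock 250 nM/500 nM) plus glutathione donor and Ni-chelate acceptor beads (5X, 50 ug/mL).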
D2 potentiator = Beta-Arrestin HTS for Positive Allosteric Modulators of the Human D2 Dopamine Receptor: Potentiators; potentiation, % (no concentration beside the values); DiscoveRx D2 beta-arrestin cells, luminescence, 90 min; 100% = 57 uM dopamine signal; AID 624464, 2012; D(2) dopamine receptor (Homo sapiens), P14416; actives 0.23% (n = 360,000); active = potentiation of 50% or more; inconclusive = 30% to 50%; inactive = 30% or less;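 also: compound concentration not given in the record; tested on top of an EC20 dose of dopamine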
Target sequence (P14416 whole entry, looked up): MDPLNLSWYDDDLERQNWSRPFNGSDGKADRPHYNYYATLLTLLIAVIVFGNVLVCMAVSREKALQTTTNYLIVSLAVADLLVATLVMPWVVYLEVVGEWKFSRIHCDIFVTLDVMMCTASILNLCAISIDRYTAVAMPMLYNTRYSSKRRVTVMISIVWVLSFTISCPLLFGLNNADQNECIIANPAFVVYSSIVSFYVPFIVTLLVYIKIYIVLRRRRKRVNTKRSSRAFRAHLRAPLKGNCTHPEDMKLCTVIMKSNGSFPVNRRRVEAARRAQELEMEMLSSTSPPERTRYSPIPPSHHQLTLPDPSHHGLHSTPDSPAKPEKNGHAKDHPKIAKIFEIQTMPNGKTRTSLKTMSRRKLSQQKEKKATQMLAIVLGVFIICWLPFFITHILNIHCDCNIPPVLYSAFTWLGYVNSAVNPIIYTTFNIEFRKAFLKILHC
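PathHunter D2 cells, attached overnight at 37 deg C, received compound in DMSO plus dopamine at EC20 (50 nM final) for 90 min at 37 deg C. Beta-arrestin recruitment was read as luminescence after 1 h with detection reagent at ambient temperature.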
D2 ag = Beta-Arrestin HTS for Positive Allosteric Modulators of the Human D2 Dopamine Receptor: Agonists; activation, % (concentration not given with the values); DiscoveRx PathHunter D2 beta-arrestin, luminescence, 90 min; 100% = 57 uM dopamine signal; actives 0.084% (n = 360,000); in the data active = activation above about 40%; inconclusive = about 15% to 40%; inactive = below about 15%; also: compound concentration not given in the record; the text of the record calls up to 30% inactive
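DiscoveRx PathHunter D2 beta-arrestin cells (2,100/well) attached overnight, then compound-stimulated 90 min at 37 C in HBSS/10 mM HEPES/0.1% Tween-20 buffer; beta-galactosidase complementation read by luminescence after 1 h at ambient temperature. Dopamine 57 uM final (EC100) as control.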
* marks the source's active call; other numbers are inactive results; ? = inconclusive; . = not tested or not shown; & = joins results of further samples; [ ] = remark or other dose.

SMILES	TRPML1 blocker	PINK1 expr mod	TRPML1 ag	Six1-Eya2 inh	D2 potentiator	D2 ag
CC(C)CN1C(=O)N(c2ccc(Cl)cc2)C(C)(O)CC1(C)C (configuration not stated)	16	8.4%	1.5	3	-2	-5.3
CCc1c(C)c2c(C)nn(-c3ccccc3)c2[nH]c1=O	-8	1.0%	3.3	1	-7	0.5
COc1ccc([N+](=O)[O-])cc1NC(=O)N(C)Cc1ccco1	14	1.2%	0.2	-18	11	-4.5
Cc1cccn2c(=O)c(/C=N/O)c(N3CCOCC3)nc12	6	0.6%	-0.5	6	-6	-2.2
CCOC(=O)CN1CC23C=CC(O2)C(C(=O)NCc2cccs2)C3C1=O (configuration not stated)	9	-2.3%	1.2	3	-7	-0.6
CCN(CC)CCN(CC)Cc1ccccc1Br	21	-1.9%[38.3 µM]	1.5	0	-5	-0.5
Cc1ccc(NC(=O)CC2SC(=NCC3CCCO3)NC2=O)cc1Cl (configuration not stated)	-5	-2.2%	0.8	2	-29	-2.2
COc1cccc(N2CCN(CC(=O)Nc3ccc(SC(F)F)cc3)CC2)c1	1	0.6%	1.1	-25	-18	0.0
CSc1ccccc1NC(=O)CSc1nnc(CNC(=O)c2ccccc2F)n1C	7	1.6%	0.4	-2	-4	3.7
O=C(CN1C(=O)COc2ccccc21)NCCCN1CCOCC1	-9	-0.6%	1.0	62	-5	-6.1
CCn1c(SCC(=O)NCCc2ccccc2)nc2c([nH]c3ccccc32)c1=O	8	5.3%	-0.4	2	-2	-2.2
CCOC(=O)C1=C(N)Oc2c(oc(CO)cc2=O)C1c1ccc(Cl)cc1 (configuration not stated)	-7	2.1%	-0.2	?	-1	-3.9
CC1CCCCC1NC(=O)C(Cc1ccccc1)NS(=O)(=O)c1cccs1 (configuration not stated)	-11	.	1.4	-7	-7	-1.8
CC(C)CNC(=O)C1C2C=CC(C2)C1C(=O)O (configuration not stated)	5	1.3%	1.2	1	5	-2.7
O=[n+]1c2c(n([O-])c3cc(F)c(N4CCCC4)cc31)CCCC2	-2	-0.2%	10	0	-25	1.4
COC(=O)C(Cc1c[nH]c2ccccc12)NC(=O)c1cccc(S(=O)(=O)N2CCCCC2)c1 (configuration not stated)	3	3.2%	-0.7	-26	-6	-6.6
O=C(Nc1cccnc1)c1cc2c(ccc3ccccc32)o1	13	-3.2%	-0.5	4	2	4.1
Cc1ccc(C2C=C(c3ccc(Cl)cc3)Nc3nc(NC(=O)CCC(=O)O)nn32)cc1 (configuration not stated)	7	0.9%	5.8	.	.	.
CC(=O)Nc1ccc(NC(=O)C(C)OC(=O)c2cc(S(=O)(=O)N3CCOCC3)ccc2Cl)cc1 (configuration not stated)	0	3.8%	-0.9	-1	-23	-5.3
CCNc1nc(NCC)nc(N(C)n2cnnc2)n1	14	-0.6%[38.3 µM]	-0.5	5	-9	-1.7

An excerpt from above in order of the TRPML1 blocker value, largest number first.
compound | TRPML1 blocker
CC(C)CNC(=O)C1C2C=CC(C2)C1C(=O)O (configuration not stated) | 5
COc1cccc(N2CCN(CC(=O)Nc3ccc(SC(F)F)cc3)CC2)c1 | 1
Cc1ccc(NC(=O)CC2SC(=NCC3CCCO3)NC2=O)cc1Cl (configuration not stated) | -5

(list continues)
SMILES	TRPML1 blocker	PINK1 expr mod	TRPML1 ag	Six1-Eya2 inh	D2 potentiator	D2 ag
CC(=O)c1cccc(S(=O)(=O)N(CCCO)Cc2cc3ccc(C)cc3[nH]c2=O)c1	2	3.9%[38.3 µM]	-0.5	0	-10	-2.1
Cc1ccc(N2CCCn3c2cc(C)c(C#N)c3=O)cc1Cl	-14	-0.6%	-0.4	3	-3	-0.9
CCOc1cc(C(=O)NCc2nnc(SCC(=O)OC)n2C)cc(OCC)c1OCC	-7	5.1%	-0.4	-10	-18	-2.1
O=C(COc1ccccc1Cl)NCCNC(=O)c1ccco1	19	-1.3%	0.4	-2	-4	5.5
O=S(=O)(/C=C/c1ccccc1)N1CCc2ccccc2C1	-13	3.1%	3.7	-7	-1	0.2
Cc1cc(NC(=O)Cn2c(=O)nc(-c3ccccc3F)c3cc(Cl)ccc32)ccc1Br	-2	2.9%	-0.3	.	.	.
O=C(Cn1ncc(Cl)c(Cl)c1=O)N1CCOCC1	9	-2.9%	-0.1	1	3	2.2
Cc1ccc(NC2CCCN(C(=O)CCC3=NNC(=O)CC3)C2)cc1C (configuration not stated)	-15	-1.0%	0.0	9	-2	0.9
Cc1ccc(Cc2nc3ccccc3nc2SCC(=O)N2CCC(C)CC2)cc1	85	-0.8%	3.3	.	.	.
CN1CCN(c2ccc(CNC(=O)C3Cc4c(-c5cccc(F)c5)ccnc4O3)cc2)CC1 (configuration not stated)	.	1.6%	-0.6	-9	-15	-4.1
O=[N+]([O-])c1ccccc1/C=N/NC1=NS(=O)(=O)c2ccccc21	12	2.2%	0.3	0	-10	-8.1
O=C(CSc1nc2nccnc2c(=O)n1Cc1cccs1)Nc1ccccc1F	3	1.7%	-0.1	0	?	4.2
Cc1cc(C)cc(NC(=S)NC(=O)Cc2ccccc2)c1	-27	8.6%	0.9	-3	-2	3.1
Cc1ccc(C)c(S(=O)(=O)NCC(=O)NCc2ccco2)c1	-23	0.8%	1.4	0	-20	-8.9
COc1ccc(NC(=O)c2cc(C)nc3ccccc23)c(OC)c1	5	0.4%	-1.1	-1	-8	0.2
Cc1ccc(N(C)S(=O)(=O)c2cccc(C(=O)Nc3nnc(C4CC4)s3)c2)cc1	2	0.0%	-0.5	-11	-2	3.1
Cc1ccc2c(c1)CCCO[C@]21O[C@H](CCO)C[C@H](O)[C@H]1O	.	0.5%	1.5	7	-5	5.5
CCOc1ccc(-n2nc(CO)c(C(=O)NCc3cccc(OC)c3)n2)cc1	20	2.4%	1.8	.	.	.
c1coc(-c2nc(N=C3N=c4ccccc4=N3)[nH]c2-c2ccco2)c1	-3	0.4%	-1.0	-21	-11	-3.8
COc1ccc(C2C(=O)c3ccccc3C2=O)c(OC)c1	-15	-0.6%	-0.8	-2	-12	-7.0
COc1ccc(Cl)cc1NC(=O)[C@H]1O[C@@H]2OC(C)(C)O[C@@H]2[C@H]2OC(C)(C)O[C@H]21	20	0.1%	-0.7	.	.	.
C[C@@H]1CN([C@@H](C)CO)C(=O)CCCn2nncc2CO[C@H]1CN(C)Cc1ccccc1	-17	-0.1%	-0.3	7	3	-6.5
COc1ccc(C2=NN(C(C)=O)CC2c2cccc([N+](=O)[O-])c2)cc1 (configuration not stated)	-6	1.1%	0.8	-5	-11	-1.4
O=C(CN1CC[C@@]2(O)CCCC[C@H]2[C@@H]1c1ccc(F)cc1)NCc1ccco1	10	-1.1%	0.1	-20	-3	0.1
CC(C[N+](C)(C)C)OC(N)=O (configuration not stated)	8	1.0%	-0.3	4	1	-6.5
Cc1cc(N2CCN(c3ccc(F)cc3)CC2)nc(-c2ccccc2)n1	23	4.3%	1.4	-22	-8	-3.1
COc1ccc(C(=O)N(C)C2CCCc3ccccc32)cc1OC1CCN(C(C)C)CC1 (configuration not stated)	-1	1.6%	1.1	-6	-26	-1.5
CN(C)S(=O)(=O)c1cccc(C(=O)Nc2ccc(C(=O)Nc3cccc(S(N)(=O)=O)c3)cc2)c1	-1	-0.4%	1.9	12	-8	-2.4
O=C(CC1CCCC1)Nc1cc(C(F)(F)F)ccc1-n1cncn1	7	0.7%	0.6	5	-1	3.6
O=C1CC(C2CCCO2)C(=O)N1c1ccc(Cl)c(Cl)c1 (configuration not stated)	-7	1.2%	-0.3	0	1	8.6
Cc1c(NC(C)c2ccccc2O)c(=O)n(-c2ccccc2)n1C (configuration not stated)	-1	-5.1%[38.3 µM]	0.3	6	-8	-0.7
CCOC(=O)N1CCN(C(=O)Cc2ccc(Cl)cc2)CC1	5	-0.6%	-0.8	1	-3	-4.2
CC(=O)Nc1cccc(NS(=O)(=O)c2c(C)noc2C)c1	18	-3.7%	-0.3	4	7	1.7
COc1ccc(NC(=O)c2c(Cl)n(C)c3ccccc23)cc1	30	11%	-0.1	-9	9	1.1
CCOC(=O)/C(N=Nc1sc(C(=O)OC)c(C)c1C(=O)OCC)=C(\O)CCl	17	-0.9%	3.6	-10	-12	-0.9
Cc1nc(C)c(-c2ccc(SCC(=O)Nc3ccc(F)c(F)c3)nn2)s1	27	0.9%	1.5	.	.	.
COc1cccc(NC(=S)C(C#N)=C2N(C)c3ccccc3N2C)c1	8	4.7%	-0.3	-12	-5	-5.4
O=c1[nH]cnc2c1N=C(c1cccc([N+](=O)[O-])c1)CC(c1ccccc1)N2 (configuration not stated)	24	-1.3%	-0.1	-2	0	-2.5
COc1ccc(C(=O)n2nc(-c3ccco3)nc2N)cc1OC	4	-0.9%	0.2	11	4	0.6
CCOc1ccccc1NC(=O)c1cccc(NC(=O)C(C)C)c1	40	16%	0.7	0	-9	-3.5
COc1ccc(NS(=O)(=O)c2cc(NC(=O)/C=C/c3ccccc3OC)ccc2N2CCCCC2)cc1	10	0.4%	0.0	11	-4	-2.9
CN1C(=O)C(CCC(=O)O)NC1=S (configuration not stated)	17	-0.2%	0.5	10	-13	-3.2
Cc1ccc(-n2cc(CCCCCCCCC(=O)O)nn2)cc1	17	0.7%	-0.7&0.0	2	1	-0.5
CC(=O)N1C(C(=O)O)Cc2c([nH]c3ccccc23)C1C (configuration not stated)	11	-0.8%	-0.6	17	-30	-7.5
CC(C)C(NC(=O)c1ccc(F)cc1)C(=O)N1CCN(c2ccccn2)CC1 (configuration not stated)	14	-1.0%	0.0	-16	-5	2.3
O=C1CC(NNc2ccccc2)C(=O)N1c1ccccc1 (configuration not stated)	26	-1.3%	-0.5	-13	-7	-4.1
COC(=O)c1c(NC(=O)COC(=O)c2ccccc2O)sc2c1CCCCC2	26	14%	2.2	-2	0	1.3
CC1=C(C(=O)OC(C)(C)C)C(c2ccc(Br)cc2)NC(=O)N1CCCC(=O)O (configuration not stated)	23	1.6%	0.3	3	-1	-0.6
COc1ccc2c(C)c(CCC(=O)NCc3cccc(Cl)c3)c(=O)oc2c1	20	1.8%	-1.1	.	.	.

Retrieved by compound from the entries so far, two records:
SMILES	TRPML1 blocker	PINK1 expr mod	TRPML1 ag	Six1-Eya2 inh	D2 potentiator	D2 ag
CN1C(=O)C(CCC(=O)O)NC1=S (configuration not stated)	17	-0.2%	0.5	10	-13	-3.2
CC(=O)N1C(C(=O)O)Cc2c([nH]c3ccccc23)C1C (configuration not stated)	11	-0.8%	-0.6	17	-30	-7.5

Screens: PubChem BioAssay, National Center for Advancing Translational Sciences (NCATS)

Compounds were not picked by outcome, and some 1% of all compounds hit somewhere here.
